# Assay outcomes as filed in PubChem.
# NPYLR7 agonist: mosquito NPYLR7 agonism. HEK293T NPYLR7/Galpha15, GCaMP6s calcium fluorescence. activation, % at 10 µM. hit rate 0.15% among 270,000. AID 1259423; in the data active = activation above about 40%;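 also: 0% = vehicle and 100% = reference agonist at the receptor; some compounds past the cut are filed as inactive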
# NPYLR7 agonist max-min: further read-out of NPYLR7 agonist, marked with its call; activation, %; measured here: Max-Min RFU normalised activation; some inactives read as strong as hits;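 span of the calcium signal over five minutes; 0% = vehicle and 100% = native peptide agonist; compound fluorescence can raise it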
# Numbers without * were called inactive; & = joins results of further samples. Only part of the results is shown (hit frequency here may not be typical).
# The line under a structure holds: NPYLR7 agonist, NPYLR7 agonist max-min
Cc1nnsc1C(=O)Nc1nn(C)c2c1C(c1ccco1)CC(=O)N2 (stereo not given)
  -11, -20
O=C1C2C3OC(C2C(=O)N1OCc1ccccc1)C1C3C2(Cl)CC1(Cl)C(Cl)=C2Cl (stereo not given)
  -1, 19
Fc1ccc(-n2cccn2)c(CN2CCc3c([nH]c4ccccc34)C2c2ccccn2)c1 (stereo not given)
  6, -1
Cc1ccc(S(=O)(=O)Oc2ccc(F)cc2)c(C)c1C
  -5, -5
COCCN(Cc1cnn(C)c1)C(=O)c1cnc(C)cn1
  -1, -3
CC(c1cccs1)N(C)Cc1cnn2cccnc12 (stereo not given)
  -3, -1
Cc1ccc(-c2csc3nc(CNCc4ccccc4)[nH]c(=O)c23)cc1C
  2, 6
COC(=O)c1cn(C(C)C)cc(C(=O)N2CCOC(c3ccc(F)cc3)C2)c1=O (stereo not given)
  5, 1
O=C(CC(c1ccccc1)c1ccccc1Cl)NCCN1CCCCC1=O (stereo not given)
  1, -4
Cn1c(N)c(S(=O)(=O)NCc2ccc(Cl)cc2)c(=O)n(C)c1=O
  2, -1
COc1cc(-c2ccc3c(c2)COC2(CCN(C(=O)CCc4ccccc4)CC2)O3)cc(OC)c1OC
  -6, -13
COc1ccc(N2C(=O)C(c3c(C)[nH]n(-c4ccc(Cl)cc4)c3=O)=C(N3CCN(C)CC3)C2=O)cc1
  34&-6, 30&-2
CC(C)c1ccc(C2SCCN2C(=O)c2cccc([N+](=O)[O-])c2)cc1 (stereo not given)
  -3, 3
CN1CCOc2cc(C(=O)NCc3nnc(-c4ccccc4)o3)ccc21
  0, -19
CCN1CCc2c(sc3nc(Cc4ccccc4)nc(N4CCN(C(=O)c5cccc(OC)c5)CC4)c23)C1
  -2, 0
CCCNC(=O)c1cc(NC(=O)Nc2cccc3ccccc23)ccc1N1CCCCC1
  24, 23
Cc1cccc(Nc2ncccc2C(=O)NCc2cccnc2)c1C
  -9, -17
Cc1noc(C)c1C(=O)OC(C)C(=O)NC1CCCC1 (stereo not given)
  2, 3
O=C(CNC(=O)C1CCCCC1)Nc1nc(CC23CC4CC(CC(C4)C2)C3)cs1
  -3, -7
O=C(C1CCCCC1)N1CC(=O)N2CCc3ccccc3C2C1 (stereo not given)
  -3&-6&2&2, -6&-15&2&-24

# 2 of these compounds in a different format.
SMILES,NPYLR7 agonist,NPYLR7 agonist max-min
Cc1ccc(S(=O)(=O)Oc2ccc(F)cc2)c(C)c1C,-5,-5
COCCN(Cc1cnn(C)c1)C(=O)c1cnc(C)cn1,-1,-3

# Additional structures follow:
# The line under a structure holds: NPYLR7 agonist, NPYLR7 agonist max-min
CCOC(=O)C1CCCN(C2CCN(c3ccc(NC(=O)CCc4ccccc4)cc3)CC2)C1 (stereo not given)
  -6, -11
Nc1cc(S(=O)(=O)N2CCCC2)ccc1O
  8, 6
CC1CCC(NC(=O)c2c(C(F)(F)F)n[nH]c2C(F)(F)F)CC1 (stereo not given)
  -1, -2
CCCN1CCCc2cc(CCNS(=O)(=O)Cc3cccc(C)c3)ccc21
  11, 5
CCOC(=O)CC(=O)Nc1ccc(-c2onc3c2CCc2cc(OC)ccc2-3)cc1
  6, 6
CCn1ncnc1CN1CCN(c2cc(C)nc3ccccc23)CC1
  4, 1
O=C(NCCc1nccs1)C1CCCN(C2CCN(C(=O)C3CC3)CC2)C1 (stereo not given)
  4, 3
COc1ccc(NC(=O)c2ccc(-c3cccc4c3CCNC4)o2)cc1
  3, 0
COc1ccc(-n2ncc3c2CC(C)(C)CC3NC(=O)c2ccc(OC)o2)cc1 (stereo not given)
  17, 8
FC(F)(F)c1cccc(N2CCC(N=Cc3ccc(Br)cc3)=N2)c1
  -2, -2
CCNC(=O)N1CCC2(CC1)NC(=O)Cc1cc3ccccc3cc12
  13, 12
O=C(c1ccc(F)cc1)N1CCCC(N2CCN(c3cccc(C(F)(F)F)c3)CC2)C1 (stereo not given)
  7, 12
Fc1ccccc1-n1c(Cc2csc3nc(-c4ccccc4)nn23)n[nH]c1=S
  5, -2
CSc1nn(CC(=O)Nc2c(C)cccc2C)c(N)c1S(C)(=O)=O
  0, -9
CCc1ccccc1NS(=O)(=O)c1ccc2c(c1)CC(C)N2C(C)=O (stereo not given)
  3, 1
O=C(CSc1nc2ccccc2s1)N=Nc1c(O)[nH]c2ccc(Br)cc12
  1, -3
CC(C)N(CC(=O)N1CCc2sccc2C1c1ccc(Cl)cc1Cl)C(=O)C1C[C@H]1c1ccccc1 (stereo not given in full)
  -2, -6
O=C(O)c1ccc(N2N=C(c3ccc4c(c3)OCCO4)CCC2=O)cc1
  -2, -3
COCCn1c(-c2cccnc2)n[nH]c1=S
  -2, -2
C=C(C)CN(CC)S(=O)(=O)c1sc2c(c1C(=O)OC)CCN(Cc1cc(Cl)ccc1O)C2
  31, 20

# Structural class: the compounds so far with a CF3 group
# The line under a structure holds: NPYLR7 agonist, NPYLR7 agonist max-min
CC1CCC(NC(=O)c2c(C(F)(F)F)n[nH]c2C(F)(F)F)CC1 (stereo not given)
  -1, -2
FC(F)(F)c1cccc(N2CCC(N=Cc3ccc(Br)cc3)=N2)c1
  -2, -2
O=C(c1ccc(F)cc1)N1CCCC(N2CCN(c3cccc(C(F)(F)F)c3)CC2)C1 (stereo not given)
  7, 12

# The list continues.
# The line under a structure holds: NPYLR7 agonist, NPYLR7 agonist max-min
C/C=C/CSC(C)C(=O)NC1CCCC1 (stereo not given)
  17, 9
COc1c(F)ccc(C(=O)N(C)C2Cc3ccccc3C2)c1F
  11, 4
COC(=O)c1sccc1NS(=O)(=O)c1ccc([N+](=O)[O-])cc1
  -8, -10
CC(=O)N1N=C(c2ccco2)CC1c1ccc(Br)cc1 (stereo not given)
  -4, -4
Cc1c(C)n2c3c(=O)n(CCN4CCOCC4)c(=O)n(C)c3nc2n1C
  -5, -6
COCCCN(CC(=O)N1CCc2sccc2C1c1ccccc1C)C(=O)c1ccc([N+](=O)[O-])cc1 (stereo not given)
  4, 2
CCN(C)C(=O)c1ccc(-c2cc(O)cc(CCC3CCCCN3)c2)nc1 (stereo not given)
  7, 5
COc1ccc(Nc2cc3c(cn2)cc(-c2cnn(C)c2)n3Cc2ccccc2)cc1
  22, 21
Cc1cc(C=NNC(=O)CC23CC4CC(CC(C4)C2)C3)c(C)n1C1CC1
  -12, -15
CCn1nnc(-c2ccc(O)c(N)c2)n1
  -8, -12
COc1ccc(OC)c(NC(=O)CSc2nc3c(cnn3CCO)c(=O)[nH]2)c1
  0, 1
COCCn1c(SCC(=O)Nc2ccc(Br)cc2)nc2c([nH]c3ccccc32)c1=O
  -2, 1
Cc1ccsc1CN(Cc1ccc2c(c1)OCO2)C(=O)CN(CCN1CCOCC1)C(=O)C1CC1
  -3, 9
CC(=O)c1c(C)[nH]c(C(=O)C(C)Sc2nnnn2C2CCCC2)c1C (stereo not given)
  7, 4
O=C(c1cc(-c2ccco2)nn1-c1ccc([N+](=O)[O-])cc1)N1CCN(Cc2ccccc2)CC1
  2, 12
O=C(CCCSc1ccc(NC(=O)C2CC2)nn1)NC1CCCCCC1
  -1, -2
Cc1cc(C)nc(NC2=NCC(=O)N2c2ccc(C)c(Cl)c2)n1
  -8, -15
COc1cccc(C(=O)NCc2nnc(SCC(=O)Nc3nccs3)n2-c2ccc(F)cc2)c1
  -13, -4
Cc1ccc(C(=O)Nc2ccccc2)cc1S(=O)(=O)Nc1cccc(C(=O)O)c1
  1, 0
Cc1ccc(N=CC(C#N)c2nc3ccccc3s2)cc1C (stereo not given)
  2, -5
Cc1sc(NC(=O)C2CC2)c(C(=O)N2CCc3ccccc32)c1C
  3, -1
COCC(=O)Nc1nnc(SCc2cc(C)cc(C)c2)s1
  -5, 2
CCc1nc2n(n1)C(=O)C(C(c1cccc(OC)c1)N1CCN(Cc3ccccc3)CC1)S2 (stereo not given)
  -1, -4
Cc1ccc(-c2nc3oc4ccccc4c(=O)c3c(=O)n2-c2ccccc2)cc1
  9, 10
O=C(Cn1nc(-c2ccco2)c2sc(N3CCCCC3)nc2c1=O)NCc1ccco1
  -5, -6
CC(NC(=O)C1CCCN1C(=O)c1ccc(Cl)s1)C1CCCO1 (stereo not given)
  -4, 74
COC(=O)NC1CCN(c2ccccc2C(=O)N2CCN(C3CCCCCC3)CC2)CC1
  -11, 8
N#Cc1ccc[n+](CC(=O)c2ccc(Br)cc2)c1
  -10, -15
CC(C)Cn1c(N)c(C(=O)CSc2nnnn2C)c(=O)n(C)c1=O
  4, 12
O=C(NCCCNC(=O)[C@H]1CCCN1C(=O)c1ccc(Cl)cc1)c1ccc(F)cc1
  1, 9
C=CCOCC(O)CN(CCOC)Cc1c(CC)nn(-c2ccccc2)c1Oc1ccc(C)cc1 (stereo not given)
  -3, 4
Cc1ccc(N(C)S(=O)(=O)c2c(C)noc2/C=C/N(C)C)cc1F
  3, 1
CCN(CC)C(=O)[C@@H]1C[C@@H](N)CN1S(=O)(=O)c1cccnc1
  1, -5
COc1cccc(-n2c(-c3snnc3-c3ccccc3)n[nH]c2=S)c1
  -18, -23
O=C(NCC1CCCO1)C(C1CCCC1)N1CCN(C(=O)c2cccc(Cl)c2)CC1 (stereo not given)
  -6, -9
CCCN(C(=O)CC1CCC(=O)N1)C1CCCC1 (stereo not given)
  7, 4
CCNC(=O)[C@@]1(OCc2cccc(F)c2)CC(OCc2c(F)cccc2F)[C@H](O)[C@H](O)C1 (stereo not given in full)
  3, 1
Cc1cc(C(=O)NC(C(=O)O)c2c(C)n[nH]c2C)sc1-c1ccccc1 (stereo not given)
  2, 49
CCCCC(=O)N1CCN(c2ccc(Nc3ccccc3)nn2)CC1
  4, 1
OCC1(CO)COC2(CCN(Cc3ccccc3)CC2)N1
  5, 6

# Ordered by count of non-hydrogen atoms (high to low): 5 of the compounds above
# The line under a structure holds: NPYLR7 agonist, NPYLR7 agonist max-min
C=CCOCC(O)CN(CCOC)Cc1c(CC)nn(-c2ccccc2)c1Oc1ccc(C)cc1 (stereo not given)
  -3, 4
CCNC(=O)[C@@]1(OCc2cccc(F)c2)CC(OCc2c(F)cccc2F)[C@H](O)[C@H](O)C1 (stereo not given in full)
  3, 1
O=C(NCC1CCCO1)C(C1CCCC1)N1CCN(C(=O)c2cccc(Cl)c2)CC1 (stereo not given)
  -6, -9
COCC(=O)Nc1nnc(SCc2cc(C)cc(C)c2)s1
  -5, 2
CCCN(C(=O)CC1CCC(=O)N1)C1CCCC1 (stereo not given)
  7, 4

# Further entries follow.
# The line under a structure holds: NPYLR7 agonist, NPYLR7 agonist max-min
O=C1NC(=S)NC(=O)C1=Cc1ccccc1OCc1ccccc1Cl
  -2, -8
Brc1ccc2c(c1)C1CC(c3ccccc3)=NN1C(c1cccnc1)O2 (stereo not given)
  0, -2
COc1cccc(CNC(=O)NCCN2CCCCC2C)c1O (stereo not given)
  13, 11
COc1ccc(N2CCN(c3nc(C)c4c(n3)CC(C)CC4=O)CC2)cc1 (stereo not given)
  1, -2
COCCC1CN(Cc2cccc(OC)c2O)CCO1 (stereo not given)
  -1, -1
Cc1cccc(C(=O)NCC(=O)Nc2ccc(-n3cccn3)cc2)n1
  -2, 0
COc1cccc(C2CC(c3cccs3)=NN2C(C)=O)c1O (stereo not given)
  -2, -6
Cc1ccc(C(O)CN2CCCC2c2ccc(F)cc2)cc1 (stereo not given)
  2, 2
COCCNC(=O)CSc1nc2sc(C)c(C)c2c(=O)n1C1CCCC1
  0, 5
NS(=O)(=O)CCN1CCN(C(=O)c2ccc(S(=O)(=O)C(F)F)cc2)CC1
  0, -2
Fc1ccccc1CNCc1c(-c2ccccc2)noc1N1CCOCC1
  13, 12
CCOc1cc(O)c(-c2n[nH]c(C)c2-c2nc(C)cs2)cc1CC
  -9, -17
COc1ccccc1-c1ccc(C#N)c(SCc2ccncc2)n1
  2, 4
Cc1ccc([N+](=O)[O-])cc1NC(=O)CCC1CCCC1
  7, 12
Cc1ccc(NC(=O)c2cn(C)c3c(=O)n(-c4ccccc4)c(=O)[nH]c23)c(C)c1
  5, 3
CC(=O)OC(C)(C)C(=O)N1CCN(C(c2ccccc2)c2ccc(C)cc2)CC1 (stereo not given)
  -1, -8
Cc1cccc(CN(C(=O)c2sc(C)nc2C)C(C)C)c1
  10, 6
CCOC(=O)Cc1c(C)nc2ncnn2c1N1CCCC1
  14, 7
O=C(O)C(=O)C=Cc1cccs1
  9, 9
O=C(NCc1n[nH]c(=S)n1-c1cccc(Cl)c1)c1cccc2ccccc12
  -2, -3

# Continued; the last 2 above are carried over.
# The line under a structure holds: NPYLR7 agonist, NPYLR7 agonist max-min
O=C(O)C(=O)C=Cc1cccs1
  9, 9
O=C(NCc1n[nH]c(=S)n1-c1cccc(Cl)c1)c1cccc2ccccc12
  -2, -3
Cc1ccc(Cl)cc1-n1c(SCc2ccc(F)cc2)nnc1C(Cc1ccccc1)NC(=O)COc1ccc(Cl)cc1 (stereo not given)
  7, 18
COc1ccc(C)cc1NC(=O)N1CCN(CCCOC(c2ccc(Cl)cc2)c2ccc(Cl)cc2)CC1
  -1, 5
CC(C)(C)c1nnc(NC(=O)N2CCCN(C(=O)c3ccoc3)CC2)s1
  1, -1
N#Cc1cc2c(ccc3ccccc32)oc1=O
  6&3, 0&1
CCOc1ccc2c(c1)c(=O)c(S(=O)(=O)c1ccc(OC)cc1)cn2Cc1ccc(C)cc1
  -5, -11
CCSc1nnc(NC(=O)CN2CCN(S(=O)(=O)CC)CC2)s1
  9, 6
Cc1ccccc1OCC(O)CN(Cc1ccco1)Cc1c(-c2ccccc2)nn(C)c1Oc1ccc(F)cc1 (stereo not given)
  -6, 4
CCOC(=O)C1CCCN(C(=O)c2csc(CN(C(=O)Nc3ccc(OC)cc3)C(C)C)n2)C1 (stereo not given)
  23, 18
